High-throughput results: PubChem, several laboratories
YopH inh: blocks Yersinia enterocolitica YopH tyrosine phosphatase; inhibition, %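 (about 10 µM by stock and volumes)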; 140,000 compounds, 0.16% hits; fluorescence Ex485/Em525;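 active = inhibition of 50% or more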;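 note: controls were vehicle for no effect and minimum signal wells for full effect; inactives centre near -20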
Arbovirus anti: blocks arbovirus infection | arbovirus infection cell-based antiviral screen | inhibition, % at 10 µM | 200,000 compounds, 0.37% hits | AID 1251;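 active = inhibition from about 30%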;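 note: bluetongue infection of BSR cells; cell survival read as ATP light after 72 h; 0% = infected wells without compound and 100% = uninfected wells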
RecA splice inh: inhibitors of M. tuberculosis RecA intein splicing | P9WHJ3 | cell-free RecA intein splicing, fluorescence | inhibition, %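 (about 9 µM by stock and volumes)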 | 290,000 compounds, 0.75% hits; in the data active = inhibition above about 30%;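 note: 0% = vehicle wells and 100% = reference inhibitor control wells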
Target sequence (P9WHJ3 whole entry, looked up, canonical isoform): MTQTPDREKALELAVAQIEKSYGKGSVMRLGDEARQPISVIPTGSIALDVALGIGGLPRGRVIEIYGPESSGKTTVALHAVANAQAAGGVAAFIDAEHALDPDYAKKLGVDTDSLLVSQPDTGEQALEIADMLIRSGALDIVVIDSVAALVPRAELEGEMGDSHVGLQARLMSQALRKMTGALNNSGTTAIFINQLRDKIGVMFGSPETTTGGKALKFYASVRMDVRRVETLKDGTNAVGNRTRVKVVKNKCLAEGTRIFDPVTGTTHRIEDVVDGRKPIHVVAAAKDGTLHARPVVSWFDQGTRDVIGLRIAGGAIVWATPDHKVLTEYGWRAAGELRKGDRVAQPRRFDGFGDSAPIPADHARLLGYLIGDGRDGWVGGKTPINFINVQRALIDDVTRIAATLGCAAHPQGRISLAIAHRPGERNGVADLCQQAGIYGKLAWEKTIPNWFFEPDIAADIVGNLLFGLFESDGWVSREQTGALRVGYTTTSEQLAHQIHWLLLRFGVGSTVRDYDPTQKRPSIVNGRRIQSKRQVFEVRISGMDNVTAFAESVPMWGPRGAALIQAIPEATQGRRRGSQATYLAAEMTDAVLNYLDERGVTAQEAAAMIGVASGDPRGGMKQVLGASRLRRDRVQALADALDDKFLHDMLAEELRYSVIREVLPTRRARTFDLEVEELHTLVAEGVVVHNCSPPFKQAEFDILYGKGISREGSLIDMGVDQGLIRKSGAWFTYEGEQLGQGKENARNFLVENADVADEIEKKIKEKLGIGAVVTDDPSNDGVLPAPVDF
Mtb bLac sens: beta-lactam sensitization of Mtb H37Rv; M. tuberculosis H37Rv growth with meropenem, percent inhibition; hits of this screen are not shown here; inhibition, % at 25 µM; 330,000 compounds, 0.27% hits; AID 434955;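 active = about 74% or more and at least 40 points above the plate without the antibiotic, then above 30% in a dose series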;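 note: growth measured after seven days incubation then overnight dye step; 0% = bacteria only wells and 100% = bacteria with antibiotic; twin plates without the antibiotic show which effects depend on it; some results filed as inactive read as strong as hits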
Mtb growth: M. tuberculosis H37Rv growth inhibitors, H37Rv strain (AID 1626). M. tuberculosis H37Rv growth inhibition; higher % means a stronger effect. inhibition, % at 10 µM, or IC50 in µM where a hit was titrated. 220,000 compounds, 0.95% hits;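 active = confirmed in a dose series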;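 note: bacteria incubated seven days before Alamar blue readout; 0% = bacteria only wells and 100% = bacteria with antibiotic wells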
* marks the source's active call; other numbers are inactive results; / = not tested or not shown; & = joins results of further samples. This is a subset (hit frequency here may not be typical).

item	SMILES	YopH inh	Arbovirus anti	RecA splice inh
1	CC(C)C[C@H](NC(=O)N1c2ccccc2NC(=O)[C@@H]1C(C)C)C(=O)N1CCC[C@@H]1C(=O)O	/	/	1.4
2	CN(C)CCn1cnc2c1c(=O)[nH]c(=O)n2Cc1ccccc1	/	/	-2.0
3	Cc1ccc(CN2CCN(/N=C/c3ccc(C(F)(F)F)cc3)CC2)c(C)c1	-27	4	2.5
4	CC1CCCCN1C(=O)CSc1nc2ccccc2n1CC(=O)N1CCc2ccccc21 (stereo not given)	-39	-1	3.7
5	COc1ccc(C(=O)C2CCCN(C(=O)c3csc(C(C)=O)c3)C2)c(C)c1 (stereo not given)	/	/	1.2
6	CCOc1cc2[nH]c(=O)n(CCCCC(=O)NCc3ccco3)c(=O)c2cc1OCC	-43	-5	0.2
7	Cc1cc2ncn(CS(C)(=O)=O)c2cc1C	/	-4	/
8	Cc1nc(NC(=O)C(Cl)Cl)sc1C(=O)N(C)C	-16	-1	-2.9

item	Mtb bLac sens	Mtb growth
1	-10	/
2	0	/
3	89	4%
4	-3	4%
5	-3	/
6	-3	-6%
7	-12	-3%
8	0	-12%

Additional records
item	SMILES	YopH inh	Arbovirus anti	RecA splice inh
9	COc1ccc(-c2noc(CCC(=O)Nc3cccc(C)c3)n2)cc1	-48	8	0.5
10	Cc1ccc(-c2noc(CCC(=O)NCCc3ccccc3Cl)n2)cc1	-13	9	/
11	C[N+](C)(C)CC(=O)N1CCN(c2ccc3ccccc3n2)CC1	/	/	-3.2
12	COc1ccc(NCC(O)COc2ccc(C(C)(C)C)cc2)cc1 (stereo not given)	/	-2	-4.9
13	O=C(Cc1c(F)cccc1Cl)NCCCn1ccnc1	-27	4	2.5
14	COC(=O)[C@H](Cc1c[nH]c2ccccc12)NC(=O)Cc1c[nH]c2ccccc12	/	/	-0.5
15	COc1ccc(CN2[C@@H](CC(=O)O)c3cc(F)ccc3S2(=O)=O)cc1	/	/	-3.2
16	Cc1cc(O)c2c3c(c(=O)oc2c1)CCC(C)C3 (stereo not given)	/	/	0.1

item	Mtb bLac sens	Mtb growth
9	98	78%
10	-8	6%
11	2	/
12	1	20%
13	-3	5%
14	9	/
15	-3	1%
16	0	/

A different layout for some results above.
| cpd | structure | YopH inh | Arbovirus anti | RecA splice inh | Mtb bLac sens | Mtb growth |
| --- | --- | --- | --- | --- | --- | --- |
| 9 | COc1ccc(-c2noc(CCC(=O)Nc3cccc(C)c3)n2)cc1 | -48 | 8 | 0.5 | 98 | 78% |
| 10 | Cc1ccc(-c2noc(CCC(=O)NCCc3ccccc3Cl)n2)cc1 | -13 | 9 | / | -8 | 6% |
| 11 | C[N+](C)(C)CC(=O)N1CCN(c2ccc3ccccc3n2)CC1 | / | / | -3.2 | 2 | / |
| 12 | COc1ccc(NCC(O)COc2ccc(C(C)(C)C)cc2)cc1 (stereo not given) | / | -2 | -4.9 | 1 | 20% |

Remaining list, next part
item	SMILES	YopH inh	Arbovirus anti	RecA splice inh
17	COCCNC(=O)c1c[nH]c2ccc(S(=O)(=O)N3CCOCC3)cc2c1=O	/	/	0.6
18	O=C(Cn1nc(-c2nn(CC(=O)c3ccccc3)c3[n+]2CCCCC3)[n+]2c1CCCCC2)c1ccccc1	/	/	-0.6
19	Cc1ccc(NC(=O)c2sc(=S)n(-c3cc(C)ccc3F)c2N)cc1	/	4	-3.0
20	COc1ccccc1NC(=O)CN1C(=O)C2(OCCCO2)c2ccccc21	-56	5	-2.1
21	O=C(NCCCN1CCOCC1)C(=O)NCc1ccco1	/	0	-0.8
22	Cc1cc([N+](=O)[O-])nn1CC(=O)NCc1nc2ccccc2[nH]1	/	9	/
23	Cc1cccc(-c2cnn(-c3ccccc3)c2N)c1	/	/	-2.6
24	CC1Cc2ccccc2N1C(=O)CCNS(=O)(=O)c1cccc2nsnc12 (stereo not given)	-27	1	1.3

item	Mtb bLac sens	Mtb growth
17	-1	/
18	0	7%
19	-1	-8%
20	-14	-9%
21	-2	-2%
22	-5	/
23	-9	/
24	5	4%

The list continues:
item	SMILES	YopH inh	Arbovirus anti	RecA splice inh
25	O=C1CCCN1c1ccc(S(=O)(=O)NCc2ccco2)cc1	-9	8	-0.9
26	O=C(c1ccc(-c2ccccc2)cc1)C1CCCN(Cc2ccn[nH]2)C1 (stereo not given)	/	-30	/
27	N#CCCN(Cc1cccnc1)C(=S)Nc1ccc(OC(F)F)cc1	/	31*	-1.5
28	CC1CN(C(=O)/C=C/c2ccc([N+](=O)[O-])s2)CC(C)O1 (stereo not given)	/	-2	-0.5
29	O=C(Cn1c(C(F)(F)F)nc2ccccc21)N/N=C/c1ccco1	/	-1	1.0
30	CCOC(=O)c1nc(Nc2ccc(Nc3ccccc3)cc2)c2ccccc2n1	/	2	5.7
31	COc1ccc(NC(=O)CSc2nc3ccccc3nc2N2CCOCC2)c(OC)c1	/	/	3.6
32	CN(C)c1ccc(/C=C/C=N/Nc2nc(N3CCOCC3)nc(N3CCOCC3)n2)cc1	/	-10	-31

item	Mtb bLac sens	Mtb growth
25	-16	3%
26	-2	7%
27	8	3%
28	90	6%
29	-6	0%
30	/	2%
31	1	/
32	-3	10%

(next part)
item	SMILES	YopH inh	Arbovirus anti	RecA splice inh
33	CCC(CC)C(=O)Nc1ccc(Cl)c(Cl)c1	-9	7	2.5
34	COc1ccccc1NC(=O)COC(=O)c1ccc2c(c1)nc(C)n2-c1ccccc1	-18	12	5.9
35	CCOC(=O)C1=C(C)NC(SCC(=O)O)=C(C#N)C1c1ccco1 (stereo not given)	5	-5	-1.8
36	c1ccc(C2c3[nH]c4ccccc4c3CCN2Cc2cccn2-c2cccnc2)nc1 (stereo not given)	/	-16	-0.3
37	CCOC(=O)C1CCN(S(=O)(=O)c2c(C)noc2C)CC1	/	/	-0.8
38	OC(CNCC1CCCO1)Cn1c2ccccc2c2ccccc21 (stereo not given)	-28	3	3.9
39	CCCn1c(SCc2ccc(Cl)cc2)nc2c1c(=O)[nH]c(=O)n2C	-26	-4	4.8
40	O=C(Nc1ccc2ccccc2c1)NC1CCS(=O)(=O)C1 (stereo not given)	/	14	1.7

item	Mtb bLac sens	Mtb growth
33	42	1%
34	-5	-2%
35	64	0%
36	-5	0%
37	-12	/
38	2	7%
39	-7	10%
40	-11	-1%

The results go on.
item	SMILES	YopH inh	Arbovirus anti	RecA splice inh
41	COc1ccc(OC)c(C(O)c2nc3ccccc3n2C(C)C)c1 (stereo not given)	-7	6	-2.4
42	COc1ccc(NC(=O)CSc2nncn2N)c(OC)c1	/	/	-1.1
43	CCOC(=O)CCNC(=O)N1CCCC(CCC(=O)N(C)CCc2ccccn2)C1 (stereo not given)	/	-2	1.6
44	COc1cc(C)nc(N(Cc2ccccc2)S(=O)(=O)c2ccccc2)n1	-8	-13	12
45	Cc1cc(NC(=O)C(C)SCC(=O)OCC(=O)N(Cc2ccccc2)C(C)(C)C)no1 (stereo not given)	/	/	3.5
46	O=C(O)CCn1[nH]c(=O)c2ccccc2c1=O	-39	6	-0.7
47	CS(=O)(=O)C1=NN2C(=N)/C(=C\c3ccc(OC(=O)c4ccco4)cc3)C(=O)N=C2S1	/	/	37*
48	CC(=O)Nc1cccc(Cn2cccn2)c1	-38	0	-0.9

item	Mtb bLac sens	Mtb growth
41	2	10%
42	-4	/
43	-8	-5%
44	-6	5%
45	-6	/
46	3	4%
47	76	/
48	/	-7%

(continued)
item	SMILES	YopH inh	Arbovirus anti	RecA splice inh
49	CCOc1ccc(S(=O)(=O)NCC(c2ccc3c(c2)OCO3)N2CCN(C)CC2)cc1 (stereo not given)	/	/	-1.6
50	O=C1CC(N(O)c2ccccc2)C(=O)N1Cc1ccccc1 (stereo not given)	57*	-17	-0.4
51	CC(=O)Nc1c(I)c(NC(C)=O)c(I)c(C(=O)O)c1I	-33&-4	5&6	-0.8&1.5
52	C/C(=N\N=C1\NC(=O)CC(C(=O)O)S1)c1ccc(F)cc1 (stereo not given)	-14	0	-0.7
53	CC(C)C(NC(=O)c1ccc(Cl)cc1)C(=O)NCC1CCCO1 (stereo not given)	/	/	0.8
54	Cc1sc2c(c1C)C(=O)/C(=C\Nc1ccncc1)S(=O)(=O)N2C	/	/	0.1
55	CCOC(=S)SCC(=O)Nc1nc(-c2ccc(Br)cc2)cs1	-5	-27	21
56	CC(CN1CCN(C)CC1)OC(=O)c1ccccc1Cl (stereo not given)	-26	11	0.0

item	Mtb bLac sens	Mtb growth
49	-11	/
50	-4	1%
51	1&-1&1	2%&-7%
52	5	0%
53	-13	/
54	2	2%
55	11	31%
56	-5	/

Continuation.
item	SMILES	YopH inh	Arbovirus anti	RecA splice inh
57	CS(=O)(=O)c1ccc(Sc2nc3ccccc3s2)c([N+](=O)[O-])c1	-36	-20	0.2
58	CCCCN(C(=O)c1cc(Cl)nc2ccccc12)c1c(N)n(Cc2ccccc2)c(=O)[nH]c1=O	/	/	-1.6
59	CS(=O)(=O)N1CCN(C2CCN(Cc3ccccc3)CC2)CC1	10	4	-1.9
60	COc1cccc(CN(C(=O)c2cccs2)C2CCS(=O)(=O)C2)c1 (stereo not given)	/	/	-0.3
61	O=C1CCC(=O)N1c1ccc(S(=O)(=O)Nc2cccc(Br)c2)cc1	/	/	-3.6
62	O=C(/C=C/c1ccco1)NC1=NCCS1	-15	-2	1.2
63	CCOC(=O)Nc1cccc(Nc2ccccc2)c1	-28	6	-3.5
64	COc1ccc(N(CC(=O)N2CCOCC2)S(=O)(=O)c2ccccc2)cc1Cl	/	/	-3.8

item	Mtb bLac sens	Mtb growth
57	97	77%
58	4	/
59	-2	/
60	-7	/
61	3	/
62	-4	1%
63	-19	3%
64	-5	/

The listing continues.
item	SMILES	YopH inh	Arbovirus anti	RecA splice inh
65	O=C(Cn1c(NCCO)nc2ccccc21)c1ccc([N+](=O)[O-])cc1	/	/	-1.3
66	CCOC(=O)C1CCN(S(=O)(=O)c2ccc(NC(=O)OC)cc2)CC1	-1	2	2.0
67	O=C(CCC(=O)N1CCN(C(=O)c2ccco2)CC1)c1ccc(F)cc1	/	11	-0.5
68	CCCCNc1c([N+](=O)[O-])cc(C(=O)O)cc1[N+](=O)[O-]	-28	-4	-0.9
69	O=C(O)[C@H](Cc1ccccc1)NC(=O)N1CCOCC1	-3	0	2.2
70	Nc1cc(=O)[nH]c(=O)n1CCCc1ccccc1	/	/	-1.9
71	COc1ccc(NC(=O)c2cc(S(=O)(=O)N3CCCCC3)c[nH]2)cc1	/	/	2.5
72	CCN(CC)CC(=O)Nc1scc2c1c(=O)oc1ccccc12	/	/	1.2

item	Mtb bLac sens	Mtb growth
65	-2	/
66	-5	-6%
67	4	5%
68	2	7%
69	-1	1%
70	-12	/
71	7	/
72	65	5%

Following part:
item	SMILES	YopH inh	Arbovirus anti	RecA splice inh
73	Cc1ccccc1NC(=O)C1CCCN(C(=O)NCc2ccccc2)C1 (stereo not given)	/	/	-0.4
74	COc1ccc(C(CCN2CCCC2)c2c(OC)cc(OC)c3c(-c4ccccc4)cc(=O)oc23)cc1 (stereo not given)	/	/	8.6
75	CN(C)CCCN=Cc1c(O)n(CCc2ccc(F)cc2)c(=O)[nH]c1=O	10	-5	4.2
76	Cc1nn(C)c(Cl)c1C(=O)NC(C(=O)O)c1ccccc1 (stereo not given)	/	-2	-1.2
77	C=C(C)CSc1nnc([C@@H]2CCCN2)o1	/	/	-2.8
78	COc1ccc(CCNC(=O)Cn2c(=O)n(-c3ccc(C)c(F)c3)c(=O)c3sccc32)cc1OC	/	7	-2.1
79	Cc1cc2nn(-c3ccc(F)cc3)nc2cc1N	/	/	-33
80	CC(C)=CCN1CCN(Cc2cccc3c2OCO3)CC1CCO (stereo not given)	/	2	-0.9

item	Mtb bLac sens	Mtb growth
73	-5	/
74	99	64%
75	0	-2%
76	-5	-1%
77	-11	-2%
78	-2	-1%
79	4	/
80	5	-2%

The list goes on.
item	SMILES	YopH inh	Arbovirus anti	RecA splice inh
81	CCOC(=O)Cc1nnc(NC(=O)C(CC)Sc2nncn2C)s1 (stereo not given)	-34	4	-1.0
82	CCOc1ccc(S(=O)(=O)Nc2ccc(C(=O)NCC(c3ccccc3)N(C)C)cc2)cc1 (stereo not given)	/	/	-0.5
83	COc1ccc(/C=N/NC(=O)Nc2cccc3nsnc23)cc1	-21	10	-13
84	Cc1ccc(NC(=S)N2CCCC2)cc1C	/	/	-0.1
85	COc1cccc(C(=O)Nc2nc(SCc3ccc(Cl)cc3)n[nH]2)c1	/	/	39*
86	O=C1CC(C(=O)NC2CCCCC2)C2(CCCCC2)O1 (stereo not given)	/	9	2.9
87	O=C(NCc1cccnc1)/C(=C/c1ccc(-c2ccc(Cl)cc2)o1)S(=O)(=O)c1ccccc1	-29	-35	35*
88	O=C(Nc1cnn(Cc2ccc(Cl)cc2Cl)c1)c1cc(-c2cccs2)on1	-2	-10	-0.5
89	NC(=O)c1ccc(CSc2nc3ccccc3s2)cc1	/	/	-1.2
90	Cc1cc(=O)oc2cc(NC(=O)c3cccc(S(C)(=O)=O)c3)ccc12	/	/	-2.7

item	Mtb bLac sens	Mtb growth
81	3	5%
82	-10	/
83	-9	7%
84	-5	/
85	-5	/
86	-5	-2%
87	99	3.9µM*
88	10	2%
89	11	/
90	4	/
